# Assay outcomes (PubChem BioAssay)
# HIV Env fusion: inhibitors of HIV Env-mediated cell fusion; 360,000 tested, 1.1% active; AID 651610; inhibition, % at 12.3 µM; HeLa-JRFL Env/CEM21 cell fusion, luciferase;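 active = mean replicate inhibition score of at least 50 and every replicate individually at or above 50; inconclusive = only one of the two criteria met; inactive = mean below 50 and not all replicates reaching 50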;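 note: 0% = plate neutral controls and 100% = maraviroc near 300 nM; one replicate is shown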
# PABP FP inh: blocks human PABP binding to poly(A) RNA. P11940. fluorescence polarization. inhibition, % at 35 µM. 290,000 tested, 1% active. AID 2014;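 active = 50% or more with normal probe brightness, or confirmed in later tests; inconclusive = above 50% with abnormal brightness, or retests that disagree; inactive = below 50% or failed in later tests; about a fifth of its hits are not listed in these tables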;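 note: calls also rest on retests at 20 µM and on dose response follow-up; controls were probe without protein and protein plus probe with vehicle; some compounds called inactive have numbers as strong as hits; many hits fall short of the cut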
# Target sequence (P11940 whole entry, looked up): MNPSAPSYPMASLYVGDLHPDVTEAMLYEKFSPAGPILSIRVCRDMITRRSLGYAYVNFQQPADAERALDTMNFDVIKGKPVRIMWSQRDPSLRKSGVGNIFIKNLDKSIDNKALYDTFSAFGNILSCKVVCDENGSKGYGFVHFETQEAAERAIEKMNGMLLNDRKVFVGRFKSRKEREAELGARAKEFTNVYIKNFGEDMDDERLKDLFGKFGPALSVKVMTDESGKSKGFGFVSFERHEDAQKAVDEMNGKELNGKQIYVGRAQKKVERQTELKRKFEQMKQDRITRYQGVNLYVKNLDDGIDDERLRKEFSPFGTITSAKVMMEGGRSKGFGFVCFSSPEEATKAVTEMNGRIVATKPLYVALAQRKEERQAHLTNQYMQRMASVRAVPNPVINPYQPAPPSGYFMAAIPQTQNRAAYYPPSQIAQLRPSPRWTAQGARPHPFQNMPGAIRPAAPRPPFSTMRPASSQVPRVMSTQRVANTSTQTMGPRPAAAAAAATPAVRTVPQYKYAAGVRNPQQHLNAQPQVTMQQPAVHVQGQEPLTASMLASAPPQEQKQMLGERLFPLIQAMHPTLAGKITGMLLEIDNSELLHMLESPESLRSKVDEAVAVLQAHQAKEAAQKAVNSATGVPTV
# MT1-MMP act inh: inhibitors of human MT1-MMP activation; 360,000 tested, 0.061% active; HT1080 RFP-PRO-GFP cells, GFP/RFP ratio fluorescence, overnight; percent of plate control window, DMSO zero; GFP/RFP ratio change, % at 20 µM; AID 651647;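 active = GFP/RFP ratio change of at least 30% with cell ATP level not reduced by more than half and red fluorescence within 50% of control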; note: strong numbers were not always called active
#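 Test system: HT1080 RFP-PRO-GFP cells; Benchmarks: DMSO and RFP-L50D-GFP cell wells; Timing: cells overnight before dosing, compound overnight, 37 °C, 5% CO2; Compound: one 20 µM compound dose with 1% DMSO; Read-out: GFP/RFP fluorescence ratio.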
# UUG fidelity: modulators of start codon recognition fidelity in yeast; S. cerevisiae UUG-firefly luciferase reporter, luminescence/redox ratio; activity score, % at 18.7 µM; 350,000 tested, 0.13% active; AID 602363;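 active = replicate mean at a twofold rise or more, about +100% in these data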;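 note: firefly luciferase made from a UUG start codon reports start codon fidelity; reporter light over untreated wells divided by growth signal over untreated wells; some hits fall short of that in this replicate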
# CSC inhib: cancer stem cell inhibition. cancer stem cell-like cells viability, luminescence. inhibition, % at 7.5 µM. 300,000 tested, 1.1% active;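 active = mean at 75% or more and at least half the replicates too; inconclusive = mean and replicates disagree; tested in HMLE shEcad cells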;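 note: 0% = median of negative and 100% = median of positive control wells; the first replicate is given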
# Rce1 inh: yeast Ras-converting enzyme inhibition; 290,000 tested, 0.27% active; calls only; yeast membranes, quenched prenylated peptide cleavage fluorescence; Q03530;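 active = fall in fluorescence gain of 50% or more versus controls, with final raw signal at or below 3038400; inconclusive = same 50% fall but final raw signal above 3038400; inactive = fall in fluorescence gain under 50%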;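 note: plate controls were neutral control wells for no effect and wells lacking membranes for full effect; tested at 10 µM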
# eIF4H FP inh: inhibitors of RNA binding by human eIF4H; inhibition, % at 35 µM; 290,000 tested, 0.94% active; eIF4H fluorescence polarization binding assay;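 active = 50% or more with normal probe brightness, or confirmed in later tests; inconclusive = above 50% with abnormal brightness, or retests that disagree; inactive = below 50% or failed in later tests; about a fifth of its hits are not listed in these tables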;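 note: calls also rest on retests at 20 µM and on dose response follow-up; 0% = protein and probe with vehicle and 100% = probe without protein; strong numbers were not always called active; many hits fall short of the cut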
# eIF4H FP inh retest: further read-out of eIF4H FP inh, marked with its call; inhibition, %; compound at 20 µM; confirmation average;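 mean of two retest wells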
# PABP FP inh retest: second read-out of PABP FP inh, no call of its own (marks repeat the call); inhibition, %; compound at 20 µM; confirmation repeats;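 mean of two retest wells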
# MT1-MMP act inh RFP: second read-out of MT1-MMP act inh, no call of its own (marks repeat the call); RFP signal change, %; measured here: RFP expression control read;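 0 = vehicle wells; hits needed this value within 50% of zero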
# An asterisk follows results filed as active; i = inactive; ? = inconclusive; . = not tested or not shown. The list is partial; rates above refer to the full screens.
SMILES,HIV Env fusion,PABP FP inh,MT1-MMP act inh,MT1-MMP act inh RFP,UUG fidelity,CSC inhib,Rce1 inh,eIF4H FP inh,others
CC(C)OC1CCCC(O)C1CC(=O)O (stereo not given),0,7,-1,5,-14,-3,i,0,
CC1CN(O)C2CCc3c(no[n+]3[O-])C12O (stereo not given),-31,2,7,7,-26,-3,i,-11,
O=C(CN1CCOCC1)c1ccc(Br)cc1,14,4,5,8,-26,-7,i,0,
Ic1ccccc1CN[C@@H]1C2CCN(CC2)[C@@H]1C(c1ccccc1)c1ccccc1,42,.,-3,-5,7,.,.,.,
O=C1NC(=O)C(C2CCCCCC2)C(=O)N1,1,.,-4,0,-9,.,.,.,
O=c1c2ccccc2[nH]c(=S)n1-c1ccc(Br)cc1,15,7,1,-1,.,19,i,-9,
COc1ccccc1OCCCn1cc(C(=O)C2CC2)c2ccccc21,7,-10,-6,-7,.,0,i,-3,
C[C@]12CCC(=O)C=C1CC[C@@H]1[C@@H]2CC[C@@]2(C)[C@H]1CC[C@]2(C)O,.,2,-3,0,-4,.,.,-4,
O=C(CN1CCOCC1)NCC(=O)Nc1ccc(Br)cc1C(=O)c1ccccc1,-50,-7,1,-8,13,-8,i,-3,
COc1ccc(CNCCc2ccc3c(c2)OCO3)c(OC)c1OC,-2,11,0,5,-16,0,i,19,
CCOc1ccc(-n2c(O)c(C=Nc3ccc(N(CC)CC)cc3)c(=O)[nH]c2=O)cc1,.,?,-8,5,6,.,i,?,
CCCCCn1c(=O)c(C(=O)Nc2cccc(C)n2)c(O)c2ccccc21,-13,12,-12,-11,-13,4,i,0,
CCC1(O)CCC2C3CCC4=CC(=O)CCC4C3CCC21CC (stereo not given),i,.,2,-3,-1,.,.,.,
CC(C)c1ccc(NC(=O)N2C[C@H]3C[C@@H](C2)c2cccc(=O)n2C3)cc1,.,8,8,6,-7,-5,.,6,
CC(C)CC1C(C#N)=C(N)Oc2c1c(=O)oc1ccccc21 (stereo not given),-3,10,2,5,-11,1,i,9,
Cc1cccnc1-n1c(C)nc2ccccc2c1=O,.,-8,0,0,7,-1,i,6,
CN1CCN(Cc2c(F)cccc2Cl)CC1,-38,-1,-1,-2,-34,.,i,3,
O=S(=O)(c1ccc(Cl)cc1)N1CCCCC1c1cccnc1 (stereo not given),4,6,0,2,2,-3,i,9,
COC(=O)C1=C(c2ccc(F)cc2OCc2ccccc2)C[C@@H]2CC[C@H]1N2C(=O)NCCOc1ccccc1Cl,39,.,-8,-9,-15,23,.,.,
CC[C@H]1C2C[C@H]3[C@@H]4N(C)c5ccccc5C45C[C@H](C2[C@H]5O)N3[C@@H]1O (stereo not given in full),-10,.,2,-2,-17,-5,.,.,
N#Cc1ccc(NC(=O)CN2C(=O)NC3(CCCC3)C2=O)cc1Cl,-10,8,3,6,-17,-11,i,-2,
CC(=O)NC(Cc1ccc(N(CCCl)CCCl)cc1)C(=O)NC(C(=O)O)C(C)C (stereo not given),-5,4,0,6,.,-5,i,3,
Clc1ccc2c(c1)C(c1ccccc1Cl)=NCc1nnc(Br)n1-2,.,-3,-2,-5,-5,8,i,-2,
c1ccc2sc(N3CCNCC3)nc2c1,-5,-4,1,-8,-17,-11,.,0,
Cc1nccc2c1[nH]c1ccc(Br)cc12,.,.,-1,-9,15,-2,i,.,
Cc1ccc(-n2c(O)c(C=N)c(=O)n(-c3ccc(C)cc3)c2=O)cc1,17,4,-3,5,-1,-8,i,-18,
CCC(=O)Nc1cc(C(=O)N2CCC3(CC2)OCCO3)ccc1S(=O)(=O)c1ccc(C)cc1,.,2,2,5,-20,-6,i,4,
CCC1(C)OC(c2ccccc2)=C/C(=C/C=C2C(=O)NC(=O)NC2=O)O1 (stereo not given),5,-4,-112,6,.,.,i,?,
N#Cc1ccc(NC(=O)CN2CCCC2)cc1Cl,8,2,1,5,.,-10,i,-7,
CN1C(=O)C(=Cc2sc(=O)n(-c3ccccc3)c2N(C)C)C(=O)N(C)C1=O,-15,?,-24,8,10,10,i,?,

# Quoted at random: four entries already listed
SMILES,HIV Env fusion,PABP FP inh,MT1-MMP act inh,MT1-MMP act inh RFP,UUG fidelity,CSC inhib,Rce1 inh,eIF4H FP inh,others
COc1ccccc1OCCCn1cc(C(=O)C2CC2)c2ccccc21,7,-10,-6,-7,.,0,i,-3,
COc1ccc(CNCCc2ccc3c(c2)OCO3)c(OC)c1OC,-2,11,0,5,-16,0,i,19,
CC[C@H]1C2C[C@H]3[C@@H]4N(C)c5ccccc5C45C[C@H](C2[C@H]5O)N3[C@@H]1O (stereo not given in full),-10,.,2,-2,-17,-5,.,.,
CC(=O)NC(Cc1ccc(N(CCCl)CCCl)cc1)C(=O)NC(C(=O)O)C(C)C (stereo not given),-5,4,0,6,.,-5,i,3,

# (further entries)
SMILES,HIV Env fusion,PABP FP inh,MT1-MMP act inh,MT1-MMP act inh RFP,UUG fidelity,CSC inhib,Rce1 inh,eIF4H FP inh,others
Cc1cc(/C=C2\C(=O)NC(=O)N(c3ccc(F)cc3)C2=O)c(C)n1-c1cccc(C(=O)O)c1,14,31*,-13,9,5,-11,i,70,eIF4H FP inh retest=36;PABP FP inh retest=57*
CCC1CO/C(=C(\C(Cl)=C(Cl)Cl)[N+](=O)[O-])N1Cc1ccc(Cl)nc1 (stereo not given),-8,3,-2,0,-14,-2,i,-11,
Fc1ccccc1N1CCN(Cc2c(F)cccc2F)CC1,10,10,-1,0,-17,-6,i,2,
CCOC(=O)c1ccc(NC(=O)c2c(O)[nH]c(=O)[nH]c2=O)cc1,.,?,3,2,-6,12,i,?,
COc1ccc(OC)c(-n2c(O)c(C=Nc3c(C)n(C)n(-c4ccccc4)c3=O)c(=O)[nH]c2=S)c1,-3,-7,-12,4,-15,-9,i,-14,
C=CCn1c(O)c(C(CC)=NCc2cc(OC)cc(OC)c2)c(=O)[nH]c1=O,-23,-3,-18,-11,-8,25,.,4,
COc1ccc(OC)c(-n2c(O)c(C=NCc3ccc4c(c3)OCO4)c(=O)[nH]c2=O)c1,4,-9,4,4,-4,-13,i,7,
COc1ccc(-n2c(C)nc3cc(C(=O)N4CCC5(CC4)OCCO5)ccc32)cc1,.,3,3,1,-8,1,i,6,
CCCn1cc2c3c(cccc31)C1CC(C)CN(C)C1C2 (stereo not given),.,?,.,.,.,.,i,?,
CCOC(=O)C1(c2ccccc2)CCN(CC(=O)Nc2ccc(C)cc2)CC1,14,-7,0,-2,.,-9,i,-5,
NCCCP(=O)(O)CCc1ccccc1,.,20,-1,1,.,-11,i,0,
c1ccc(CNCCc2ccc3c(c2)OCO3)nc1,.,-10,-4,7,.,4,i,4,
c1cc2c(cc1CN1CCNCC1)OCO2,.,4,1,2,-2,5,i,3,
O=C1NC(=O)C2(Cc3ccccc3N3CCCC32)C(=O)N1Cc1ccccc1 (stereo not given),-61,22,-8,2,-13,-3,i,12,
CCC(=NCCc1ccccc1)c1c(O)n(C)c(=O)n(C)c1=O,18,0,-2,-22,2,-8,i,-9,
N#C/C=C/C#N,.,.,3,2,10,-2,.,.,
CCOc1cc2c(cc1OCC)-n1cccc1C(c1ccc(OC)c(OC)c1)NC2 (stereo not given),-38,-1,-4,-9,-6,-9,i,1,
CN1CCN(Cc2ccc(Br)s2)CC1,.,8,3,3,-18,3,i,12,
Cc1cc(C)nc(/N=C(\N)c2c(O)[nH]c(=O)[nH]c2=O)n1,-387,-14,6,0,-21,-1,i,-4,
CCCCN1C(=O)/C(=C/c2ccc(N(C)C)cc2)C(=O)N(Cc2ccco2)C1=O,-32,?,-63,8,.,6,i,?,
CCCCCCn1c(=O)c(C(=O)Nc2ncccc2O)c(O)c2ccccc21,44,-11,5,-26,-21,33,i,6,
CC(C)(C)C(=O)O[C@H]1CC[C@@]2(C)C(=CC(=O)C3C2CC[C@]2(C)C(=O)CCC32)C1 (stereo not given in full),6,.,5,0,-18,13,.,.,
Cc1ccc(CN2CCN(C)CC2)c(C)c1,-10,2,-6,5,-22,-15,.,-7,
CC(C)(C)NS(=O)(=O)c1ccc(OCC(=O)N2CCN(Cc3ccccc3)CC2)cc1,20,-8,0,-8,.,10,i,0,
CCCNC(=O)N1[C@H]2CC[C@@H]1C(C(=O)OC)=C(c1ccc(OC)c(OC)c1)C2,-17,.,1,0,-19,-16,.,.,
COC(=O)C1=C(c2ccc(C(C)=O)cc2)C[C@@H]2CC[C@H]1N2C(=O)NCc1ccc(F)cc1,-3,.,0,-3,-8,-26,.,.,
COc1ccc(NP(=O)(Oc2ccccc2OC)Oc2ccccc2OC)cc1,20,14,-1,-1,.,-11,i,-4,
CC1(C)C2([N+](=O)[O-])CN3CN(C2)CC1([N+](=O)[O-])C3,1,-7,3,5,1,-4,i,7,
CN(C)c1ccc(/C=C/C=C/c2sc3ccccc3[n+]2C)cc1,?,-10,29,-5,15,32,i,-16,
CC(=O)NC(Cc1ccc(N(CCCl)CCCl)cc1)C(=O)O (stereo not given),.,-11,-3,3,-25,14,i,14,
O=C1Nc2ccccc2C(c2ccccc2)=NC1O (stereo not given),-49,3,1,6,-22,-7,i,-5,
CSc1ccc(CN2CCN(C(=O)COc3cccc(C)c3)CC2)cc1,1,-3,4,-4,-17,8,i,2,
Cc1cc(NC(=O)CCl)nn1C,9,4,4,5,.,-5,i,-5,
COc1cc(C(=O)N2Cc3ccc(Br)cc3-n3nncc3C2)cc(OC)c1OC,7,.,5,4,-10,.,.,.,
Cc1cc(C(=O)OCC(=O)Nc2ccccc2F)c(C)n1C1CC1,30,.,3,2,-10,.,.,.,
COc1ccc(CC(=O)N2CCN(C)CC2)cc1OC,-10,-2,1,9,.,-6,i,-2,
CCC(NC(=O)OC(C)(C)C)C(=O)Oc1cc(C)cc2oc(=O)c3c(c12)CCC3 (stereo not given),-60,5,1,-16,-6,-1,i,-2,
c1cc(CNCCc2ccc3c(c2)OCO3)ccn1,-61,9,-2,6,-34,-15,i,9,
CC(C)CCCn1c(O)c(/C=C2/C=CC=N2)c(=O)[nH]c1=O,-5,-2,-48,25,.,20,i,?,
Cc1ccc(/C=C2\C(=O)NC(=O)N(Cc3ccccc3Cl)C2=O)o1,-93,-13,0,11,.,33,i,74,eIF4H FP inh retest=-7;PABP FP inh retest=7
O=C(c1ccc(F)c([N+](=O)[O-])c1)N1CC2CC(C1)c1cccc(=O)n1C2 (stereo not given),-6,-4,-1,-1,-19,1,i,0,
CCCC(=O)OCC[N+](C)(C)C,.,2,5,9,-3,-10,i,-2,
Cc1cc(/C=C2\C(=O)NC(=O)N(Cc3ccccc3)C2=O)c(C)n1C1CC1,18,-2,-7,5,.,4,i,?,
COc1ccc(CCNC2CCCCC2)cc1,10,-9,-2,-2,.,-5,i,-15,
Cc1cc(C)cc(-n2c(C)cc(/C=C3\C(=O)NC(=O)N(C)C3=O)c2C)c1,1,-2,-1,0,.,-19,i,58,eIF4H FP inh retest=-2;PABP FP inh retest=2
CC1=CC(=O)OC2CC3OC4C[C@@H](C)C5OC6CC7O[C@]8(C)C/C=C\C9OC%10CC%11OC(CC(C)CO)CC(O)[C@]%11(C)OC%10CC9OC8C[C@]7(C)O[C@]6(C)CCC5OC4C[C@]3(C)OC12 (stereo not given in full),13,6,14,-6,16,-3,i,4,
OC(c1ccccc1)(c1ccccc1)c1ccncc1,31,-1,1,-3,.,-3,i,-8,
NC(=O)c1c(NC(=O)c2ccc(S(=O)(=O)N(CCCl)CCCl)cc2)sc2c1CCCCC2,.,11,-3,3,-10,-16,.,6,
